Source: PubChem (several laboratories)
Hsc70 ATP site = small molecules displacing fluorescent ligand from Hsc70 – biochemical, fluorescence polarization, primary screen (AID 568); Hsc70 fluorescence polarization, probe displacement; higher % means a stronger effect; strong numbers were not always called active; 83,000 tested, under 10 active; displacement, % at 20 µM, or IC50 in µM where a hit was titrated;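 active means displacement above 50% without optical interference and an IC50 on retest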;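 further: ATPase domain with a fluorescein-tagged ATP probe; 0% = vehicle and 100% = excess ADP; read after one hour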
MT1-MMP reporter = MT1-MMP gene expression reporter suppression – cell-based, luciferase reporter, luminescence (AID 618). MT1-MMP promoter luciferase reporter cells, luminescence. calls from a first round at 10 µM; hits with a dose series show EC50 in µM. hit rate 0.62% among 87,000;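 active means over half of the reporter light lost at 10 µM or EC50 under 50 µM; inactive means the rest and hits that failed the dose series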;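 further: actives suppress MT1-MMP promoter-driven transcription so potencies describe inhibitors; HT1080 fibrosarcoma cells; overnight exposure; toxic or luciferase-blocking compounds were not removed from the actives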
WNV NS2B-NS3 inh = blocks West Nile virus NS2B-NS3 protease activity. WNV NS2B-NS3 protease, fluorogenic substrate Ex360/Em465; stronger effect = lower value. z-score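 (tested at a level between 10 and 100 µM)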. hit rate 0.18% among 65,000;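 active means z-score at -3 or under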;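 further: score is relative to mean and spread of the compound wells of a plate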
Target sequence (P06935 1371-1501 limits assumed): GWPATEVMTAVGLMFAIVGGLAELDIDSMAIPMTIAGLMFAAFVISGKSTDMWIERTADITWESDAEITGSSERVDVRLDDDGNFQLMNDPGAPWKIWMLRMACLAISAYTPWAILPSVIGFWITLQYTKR
Target sequence (P06935 1502-1679 limits assumed): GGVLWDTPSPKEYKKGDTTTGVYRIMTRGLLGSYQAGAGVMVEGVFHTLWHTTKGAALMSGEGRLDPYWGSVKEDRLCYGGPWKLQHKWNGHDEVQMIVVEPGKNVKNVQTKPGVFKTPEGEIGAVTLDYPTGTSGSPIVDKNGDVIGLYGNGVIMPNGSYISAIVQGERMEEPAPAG
The depositor's hits bear a star; i = inactive; . = not tested or not shown.

Start of the data: the first two compounds (preview)
SMILES | Hsc70 ATP site | MT1-MMP reporter | WNV NS2B-NS3 inh
CC1CC(c2ccccc2)n2nc(NC(=O)CCc3ccccc3)nc2N1 (stereo unspecified) | -0.8% | i | -0.43
CCN1CCCC1CNC(=O)CCNC(=O)c1cc(OC)c(OC)c(OC)c1 (stereo unspecified) | 4.3% | i | -0.96

Results, from the start:
SMILES | Hsc70 ATP site | MT1-MMP reporter | WNV NS2B-NS3 inh
CC1CC(c2ccccc2)n2nc(NC(=O)CCc3ccccc3)nc2N1 (stereo unspecified) | -0.8% | i | -0.43
CCN1CCCC1CNC(=O)CCNC(=O)c1cc(OC)c(OC)c(OC)c1 (stereo unspecified) | 4.3% | i | -0.96
COc1cc(/C=N/n2cnnc2)ccc1OCC(=O)N1CCOCC1 | -0.9% | i | 0.03
Cn1cccc1Cc1nnc(SCC(=O)NC2CCCC2)n1-c1ccc(F)cc1 | 1.3% | i | -0.39
COc1ccc(C2C3=C(CCCC3=O)Nc3nc(C(F)(F)F)nn32)c(OC)c1OC (stereo unspecified) | -11% | i | 1.9
O=C(NC1CCCCC1)N1CCCCCC1 | 1.4% | i | -0.71
CCOc1ccc(-c2nnc(SCC(=O)N3CCOCC3)o2)cc1 | 3.0% | i | -0.47
COc1ccc(-c2cc(C(F)(F)F)nc(NCc3ccco3)n2)cc1OC | -9.4% | i | -0.16
CCOC(=O)c1cnc(Nc2nc3ccccc3o2)nc1CN1CCN(c2ccccc2)CC1 | 5.6% | i | 1.9
COc1ccc(Br)cc1CNC(=O)C1CCC(=O)N1C(C)C (stereo unspecified) | 9.0% | i | 1.6
O=C(CSc1c[nH]c2ccccc12)N1CCOCC1 | -5.3% | i | -0.77
CCOCCCNC(=O)c1c(N)n(-c2ccc(S(N)(=O)=O)cc2)c2nc3ccccc3nc12 | -28% | i | .
COc1ccccc1NC(=O)CSc1nnc(COc2ccc(Cl)cc2)n1Cc1ccco1 | -17% | i | -1.2
COc1ccc(-n2nnc3c(SCC(=O)Nc4ccc5c(c4)OCCO5)ncnc32)cc1 | -5.5% | i | -0.66
Cc1nn(CC(=O)Nc2ccc(C(=O)N3CCCCC3)cc2)c(=O)c2ccccc12 | 1.1% | i | 1.1
COc1cc2c3c(c1)C1(C(=O)N3C(C)(C)C=C2C)C(C#N)=C(N)Oc2cc(C)oc(=O)c21 (stereo unspecified) | -3.3% | i | 0.81
CC1(C)CC(NC(=O)c2ccccc2Cl)CC(C)(C)N1 | -3.1% | i | 0.54
COc1ccc(OC)c(NC(=O)C2CC(=O)N(c3ccccc3)C2)c1 (stereo unspecified) | 6.0% | i | -0.0053
CC(C)c1nccn1CCC(=O)O | 0.8% | i | .
COC(=O)c1cccc(NC(=O)NC2CCCN2S(=O)(=O)c2ccc(Cl)cc2)c1 (stereo unspecified) | 2.9% | i | -0.78
O=C(c1ccco1)N1CCN(C(=O)C(Cc2ccccc2)NS(=O)(=O)c2cccs2)CC1 (stereo unspecified) | -5.0% | i | 0.08
CCCNC(=O)CN(Cc1ccccc1F)S(=O)(=O)c1ccc(C)cc1 | 2.4% | i | .
CCOC(=O)c1c(NC(=O)c2c(Br)cnn2CC)sc(C)c1C | -0.6% | i | .
CC(CNC(=O)c1ccc(Br)o1)NC(=O)c1ccc(Br)o1 (stereo unspecified) | 0.6% | i | -0.55

Profiles as entered above. Order of screens: Hsc70 ATP site	MT1-MMP reporter	WNV NS2B-NS3 inh
Shown for CCOCCCNC(=O)c1c(N)n(-c2ccc(S(N)(=O)=O)cc2)c2nc3ccccc3nc12 = -28%	i	.
Shown for COc1cc2c3c(c1)C1(C(=O)N3C(C)(C)C=C2C)C(C#N)=C(N)Oc2cc(C)oc(=O)c21 (stereo unspecified) = -3.3%	i	0.81
Shown for CCOC(=O)c1c(NC(=O)c2c(Br)cnn2CC)sc(C)c1C = -0.6%	i	.

Continued.
SMILES | Hsc70 ATP site | MT1-MMP reporter | WNV NS2B-NS3 inh
Cc1ccc(C(=O)CNc2nc3c(c(=O)[nH]c(=O)n3C)n2Cc2ccccc2)cc1 | -5.9% | i | 0.98
Cc1ccc(S(=O)(=O)N(C)Cc2ccc(-c3nnco3)cc2)cc1 | -7.6% | i | 1.1
CCOC(=O)N1CCN(C(=O)CCC(=O)N2CCOc3ccc(C)cc32)CC1 | -0.2% | i | -1.6
CCOC(=O)C1=C(C)NC(=O)NC1c1c(OCC(=O)N2CCCCC2)ccc2ccccc12 (stereo unspecified) | -9.1% | i | 0.37
C=CCc1ccccc1OCC(O)CNC (stereo unspecified) | 0.4% | i | -1.3
COCCN1C=C(C(=O)OC)C(c2cc3c(cc2Br)OCO3)C(C(=O)OC)=C1 | -7.7% | i | 0.0061
CC(CN1CCOCC1)OC(=O)COc1ccc(F)cc1 (stereo unspecified) | -1.2% | i | 0.88
N#C/C(C(=O)NCc1ccccc1)=C1\SC(CCO)C(=O)N1c1ccccc1 (stereo unspecified) | -8.2% | i | -1.6
COc1ccc2nc3oc(C(=O)N4CCN(c5ccccc5F)CC4)cc3cc2c1 | 9.9% | i | -0.88
CCCCOc1ncnc2c1[nH]c1ccc(F)cc12 | 0.3% | i | 0.49
CC1Cc2cc(-c3csc(NC(=O)Cc4ccccc4)n3)ccc2N1S(C)(=O)=O (stereo unspecified) | -2.8% | i | .
CCOC(=O)c1ccc(NC(=O)Cn2cccc2)cc1 | -3.5% | i | -1.1
CN=C(NC)SC1CC(=O)N(c2ccccc2)C1=O (stereo unspecified) | -6.0% | i | -1.1
Cc1c(C(=O)O)c(=S)sn1CCOc1ccccc1 | -1.2% | i | 0.45
Cc1ccc(C2CC(=O)Nc3cc4c(cc32)OCCO4)s1 (stereo unspecified) | -2.9% | i | -0.45
O=C(NCc1ccco1)C(c1ccccc1F)N(Cc1cccnc1)C(=O)Cn1nnc2ccccc21 (stereo unspecified) | 2.9% | i | -0.76
Cc1ccc2c3c1C1(C(=O)N3C(C)(C)CC2C)C(C#N)=C(N)Oc2cc(O)ccc21 (stereo unspecified) | 2.0% | i | 0.07
O=C(CSc1n[nH]c(-c2ccccc2O)n1)N1CCCc2ccccc21 | -2.7% | i | 0.63
CCOC(=O)C(NCc1ccccn1)(NC(=O)c1cccnc1)C(F)(F)F (stereo unspecified) | -1.0% | i | 0.22
COc1ccccc1C(=O)Nc1nnc(-c2ccc(Cl)cc2)o1 | -0.4% | i | 0.14
CCN1C(=O)CC(N2CCC(Nc3ccc(OC)cc3)CC2)C1=O (stereo unspecified) | -1.9% | i | -0.27
COc1cc(C(=O)Nc2nc3ccc4nc(C)sc4c3s2)cc(OC)c1OC | -5.1% | i | .
CCN(CC)CCn1c2ccc(F)cc2c2nc(C)sc21 | -5.5% | i | .
O=c1[nH][nH]c(=O)c2cc(N3CCCC3)ccc12 | -7.9% | i | 0.92
O=C(COC(=O)C1(c2ccc(F)cc2)CCCC1)N1CCN(C(=O)c2ccco2)CC1 | -0.3% | i | -0.61
COCCNC(=O)CSc1nc2ccccc2c(=O)n1CC1CCCO1 (stereo unspecified) | -1.0% | i | 0.94
COC(=O)c1ccc(NC(=O)CN(c2ccc(C)cc2)S(=O)(=O)c2c(C)n[nH]c2C)cc1 | -1.2% | i | -0.6
Cn1c(=O)[nH]c(=O)c2c1nc(N1CCCC1)n2CC(O)COc1ccccc1 (stereo unspecified) | 1.0% | i | -0.25
COc1ccc(NC(=O)N2CCn3c2nc2ccccc23)cc1 | -2.8% | i | 2.5
C=CCOC(=O)C(C#N)c1nc2ccccc2nc1N1CCC(C(=O)OCC)CC1 (stereo unspecified) | -3.2% | i | 1.3
CCc1ccc(N2CC(C(=O)NC3=NCCS3)CC2=O)cc1 (stereo unspecified) | 3.5% | i | 0.79
CCCC(=O)N1c2ccccc2C(=C2SC(C(=O)OC)=C(C(=O)OC)S2)C(=S)C1(C)C | 4.1% | i | .
O=C(O)c1cc(-c2cccnc2)nn1-c1ccccn1 | 2.8% | i | -0.75
COC(=O)c1ccc2c(c1)N(Cc1ccccc1F)C(=O)c1ccccc1S2=O (stereo unspecified) | -2.9% | i | 1.2
CCOC(=O)c1sc(NC(=O)CSc2nnnn2-c2ccc(C)c(C)c2)nc1C | -4.7% | i | 2
Cc1cccc(OCc2nnc(SCC(=O)N(C(C)C)C(C)C)n2Cc2ccco2)c1C | -3.1% | i | -0.6
CCCOc1cc(C)nc(-c2ccccc2O)n1 | 1.7% | i | .
CCc1nnc2n1N=C(c1ccc(-c3ccc(Cl)cc3Cl)o1)CS2 | 6.3% | i | 0.26
CCOc1ccc2[nH]c(S(=O)(=O)CC)nc2c1Cl | 5.9% | i | 0.37
O=c1ccc(Oc2nc(N3CCOCC3)nc(N3CCOCC3)n2)n[nH]1 | 0.3% | i | .
CC(=O)c1c(N)[nH]c(-c2ccccc2)nc1=S | -2.6% | i | 1.4
CCCS(=O)(=O)N1CCCC(C(=O)N2CCOCC2)C1 (stereo unspecified) | -7.6% | i | -0.6
O=C1CC(N2CCN(C3CC(=O)N(CCc4ccccc4)C3=O)CC2)C(=O)N1CCc1ccccc1 (stereo unspecified) | 1.2% | i | 1.9
Cn1cnnc1SCC(=O)NCCC(c1ccccc1)c1ccccc1 | 3.6% | i | .
CCOCCCNC(=O)C1CCN(c2cc(C)nc3c(-c4ccc(OC)c(OC)c4)c(C)nn23)CC1 | 2.0% | i | 0.06
CCCNC(=O)CSc1nnc(-c2ccco2)n1C | -0.8% | i | 0.98
Cn1c(SCC(=O)c2ccc(F)cc2)nnc1-c1ccccc1N | 3.8% | i | -0.51
CCOC(=O)Nc1ccc2c(CN3CCN(S(=O)(=O)c4ccccc4)CC3)cc(=O)oc2c1 | -7.7% | i | 2.4
COC(=O)c1sc(NC(=O)CSc2nnnn2-c2cccc(OC)c2)nc1C | -1.5% | i | .
N#CCCCN1C(=O)C(O)(CC(=O)c2ccc3c(c2)OCCO3)c2ccccc21 (stereo unspecified) | 1.9% | i | -0.37
COC(=O)C1=CN(C(C)C)C=C(C(=O)OC)C1c1cccc(OC)c1 | -0.1% | i | 0.44
CCCS(=O)(=O)N1CCCC(C(=O)NCc2ccco2)C1 (stereo unspecified) | 6.3% | i | -0.24
CCOC(=O)CSc1nnc(CSc2nc3sc4c(c3c(=O)[nH]2)CCC4)n1C | 0.2% | i | -0.19
CC(C)CCN1CC(C(=O)NC(C)C)CC1=O (stereo unspecified) | 4.1% | i | -0.4
COc1cc2c(cc1NCc1ccc3c(c1)OCO3)oc1ccccc12 | 4.6% | i | .
Cc1nn2c(-c3ccccc3)nnc2c2ccccc12 | 1.8% | i | -0.82
CCOC(=O)c1c(C)[nH]c(C)c1C(=O)COC(=O)c1ccc(Cl)c(S(N)(=O)=O)c1 | 4.5% | i | .
CC1=C(C(=O)OCC2CCCO2)C(c2ccccc2Cl)NC(=O)N1 (stereo unspecified) | -3.5% | i | .
CCn1c(SCc2cccc(C(F)(F)F)c2)nnc1-c1ccco1 | -2.9% | i | -0.97
CCC(C)NC(=O)c1cc(-c2ccccc2O)on1 (stereo unspecified) | -3.1% | i | 0.55

5 records drawn at random from those above, as already listed:
SMILES | Hsc70 ATP site | MT1-MMP reporter | WNV NS2B-NS3 inh
CC(=O)c1c(N)[nH]c(-c2ccccc2)nc1=S | -2.6% | i | 1.4
CC(CNC(=O)c1ccc(Br)o1)NC(=O)c1ccc(Br)o1 (stereo unspecified) | 0.6% | i | -0.55
Cn1c(=O)[nH]c(=O)c2c1nc(N1CCCC1)n2CC(O)COc1ccccc1 (stereo unspecified) | 1.0% | i | -0.25
COc1ccc(-c2cc(C(F)(F)F)nc(NCc3ccco3)n2)cc1OC | -9.4% | i | -0.16
CC(CN1CCOCC1)OC(=O)COc1ccc(F)cc1 (stereo unspecified) | -1.2% | i | 0.88

Remaining list, next part:
SMILES | Hsc70 ATP site | MT1-MMP reporter | WNV NS2B-NS3 inh
Cc1nc(Cl)sc1C(=O)O | -2.0% | i | -1.6
O=C(Nc1nccs1)c1cc(S(=O)(=O)N2CCCCC2)ccc1Cl | -5.8% | i | 0.76
CCn1c(=S)[nH]c2nc3c(cc2c1=O)CCCC3 | 7.9% | i | .
CC(C)(C)N1NC(=O)Nc2ccccc2C1=O | 3.6% | i | .
CCOC(=O)N1CC=C2C(C#N)=C(N)C(C#N)(C#N)[C@H](c3ccc(OCC)c(OCC)c3)[C@H]2C1 | -13% | i | 0.36
Cc1cc(Oc2ccccc2)nc(SCC(N)=O)n1 | 1.8% | i | 0.17
CC(=O)c1cccc(S(=O)(=O)N(Cc2cc3cc4c(cc3[nH]c2=O)OCCO4)CC2CCCO2)c1 (stereo unspecified) | -2.0% | i | 0.19
CCS(=O)(=O)N1CCC(C(=O)NCc2cccnc2)CC1 | 1.0% | i | -1.4
COc1ccc(CCC(=O)N2c3ccccc3CC2C)cc1 (stereo unspecified) | 5.1% | i | 2.3
CC(=O)[C@@]1(O)CC[C@H]2[C@@H]3CCC4=CC(=O)CC[C@]4(C)[C@H]3[C@@H](O)C[C@@]21C | -1.9% | i | 0.09
CCCCn1c2c(c(=N)c3c1CCC3)CCC2 | 2.0% | i | -0.19
CCOc1ccc(-c2nn3c(-c4ccc(F)cc4)nnc3s2)cc1 | 2.6% | i | 0.23
c1coc(-c2nnc3sc(C4CCCCC4)nn23)c1 | -4.6% | i | -0.96
O=C(CCC(=O)N1CCN(C2CCCC2)CC1)Nc1nnc(C(F)(F)F)s1 | -0.3% | i | -0.92
CCC(=O)NCCCCNC(=O)CC | 7.7% | i | -0.31

These rows are one share of the data; the hit share may differ from the screen's.
